Ecoli growth = inhibitors of Escherichia coli growth; OD600, 23 h; active compounds read low; hit rate 0.21% among 330,000; OD600 absorbance (concentration not given with the values);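 active = OD600 absorbance below the run mean of sample wells minus 3.6 SD, in any replicate, cut at about 0.56 in these data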;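 note: stock transfer was 300 nL into about 60 µL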
FGF22 binding = shifts melting point of recombinant human FGF22; Q9HCT0; recombinant FGF22 thermal shift, SYPRO orange fluorescence; percent of sucrose octasulfate shift, DMSO zero; calls only at 9.99 µM; hit rate 1.5% among 340,000; AID 651658;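 active = melting point raised past a set limit in the mean and every replicate; three in four hits are not shown here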
Target sequence (Q9HCT0 whole entry, looked up): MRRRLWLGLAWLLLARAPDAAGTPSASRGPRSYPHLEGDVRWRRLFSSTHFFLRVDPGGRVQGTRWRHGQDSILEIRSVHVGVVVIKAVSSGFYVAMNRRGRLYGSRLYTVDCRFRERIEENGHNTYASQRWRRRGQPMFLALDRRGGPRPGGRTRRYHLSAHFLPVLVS
Beta apoptosis = blocks beta cell apoptosis. INS-1E cytokine-induced death, ATP luminescence, 48 h; percent of positive-control rescue, neutral wells zero. protection from apoptosis, % (no concentration beside the values). hit rate 0.8% among 300,000;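 active = all replicates at 75% or more, or half of them and the mean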;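 note: 0% = cytokine-treated negative control wells and 100% = positive control rescue; higher means more ATP so stronger rescue from cytokine killing; wells of about 40 µL received 100 nL stock; the first replicate is given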
Ecoli rRNA inh = selective bacterial rRNA inhibition in E. coli; E. coli WT GFP vs humanized-ribosome RFP mutants, fluorescence, 24 h; active compounds read low; DMSO median 0, no signal -100; hit rate 1.6% among 350,000; AID 720706; GFP signal change (wild-type ribosome), % (no concentration beside the values);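 active = significant combined selectivity score with lowered wild-type GFP, culture density cut under 30%, mutant RFP and density less affected; inactive = any of these conditions unmet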; note: one replicate is shown; some compounds called inactive have numbers as strong as hits
AF4-AF9 inh = inhibitors of human MLL-AF4/AF9 interaction. hit rate 0.47% among 350,000. inhibition, % at 10 µM. AlphaScreen, biotin-AF4 peptide binding to FLAG-AF9. P42568;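 active = every replicate reaching a set inhibition limit, whatever the replicate mean, cut at about 25% in these data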;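 note: 0% = plate neutral control median and 100% = total signal loss; the record names both 10 and 1 µM as test concentration; the first replicate is given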
Target sequence (P42568 whole entry, looked up): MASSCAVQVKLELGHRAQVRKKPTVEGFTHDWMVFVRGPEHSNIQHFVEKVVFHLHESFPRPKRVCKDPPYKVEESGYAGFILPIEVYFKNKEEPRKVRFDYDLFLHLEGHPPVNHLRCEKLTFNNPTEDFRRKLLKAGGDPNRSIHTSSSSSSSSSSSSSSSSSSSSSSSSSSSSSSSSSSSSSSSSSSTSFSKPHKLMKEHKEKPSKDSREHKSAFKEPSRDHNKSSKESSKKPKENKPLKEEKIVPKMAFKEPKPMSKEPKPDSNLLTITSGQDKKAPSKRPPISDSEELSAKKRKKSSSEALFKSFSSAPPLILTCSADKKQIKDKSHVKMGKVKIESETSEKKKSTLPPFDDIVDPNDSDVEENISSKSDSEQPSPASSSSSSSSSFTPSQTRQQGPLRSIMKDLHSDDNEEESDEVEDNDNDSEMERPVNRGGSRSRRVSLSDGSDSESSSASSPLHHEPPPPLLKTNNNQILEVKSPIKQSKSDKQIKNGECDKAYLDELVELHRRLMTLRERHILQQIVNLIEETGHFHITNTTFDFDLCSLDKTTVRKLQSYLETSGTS
Bfl-1 A1 inh = inhibitors of the anti-apoptotic protein A1, read as caspase activation. MEF A1-2A-BIM cells, Caspase-Glo 3/7 luminescence, 3 h; percent of clofoctol response, vehicle zero. caspase activation, % (no concentration beside the values). hit rate 0.066% among 330,000;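 active = over half of replicate activation scores above 10%, or exactly half above 10 with the replicate mean above 10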;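 note: wells of about 30 µL received 50 nL stock; many hits fall short of the cut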
UCH37 inh = inhibitors of human deubiquitinating enzyme UCH37 | AID 588478 | inhibition, % (concentration not given with the values) | hit rate 0.33% among 330,000 | purified proteasome/UCH37, Ub-AMC cleavage fluorescence | Q9Y5K5;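 active = mean of two replicates above 20%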;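 note: 0% = compound-free wells with enzyme and 100% = wells lacking proteasome; stock transfer was 100 nL into about 20 µL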
Target sequence (Q9Y5K5 whole entry, looked up): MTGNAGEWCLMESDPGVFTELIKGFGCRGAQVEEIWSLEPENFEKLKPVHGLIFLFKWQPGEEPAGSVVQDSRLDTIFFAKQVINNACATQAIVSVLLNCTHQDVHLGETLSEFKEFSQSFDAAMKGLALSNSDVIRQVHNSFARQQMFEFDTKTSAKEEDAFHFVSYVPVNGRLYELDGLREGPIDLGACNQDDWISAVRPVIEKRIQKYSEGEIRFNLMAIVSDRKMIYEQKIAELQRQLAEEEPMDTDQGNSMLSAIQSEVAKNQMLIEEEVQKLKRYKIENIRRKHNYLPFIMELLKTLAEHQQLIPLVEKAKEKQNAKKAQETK
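assay system = human UCH37 enzyme supplied as purified proteasome complex | amount = proteasome at 0.15 nM in the dispensed enzyme solution | schedule = 30 min compound-proteasome preincubation then 25 min substrate reaction, room temperature | measured by = fluorescence, ex 355 nm, em 460 nm | benchmarks = no-proteasome wells (full inhibition) and compound-free wells (no inhibition)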
T cruzi inh = blocks replication of Trypanosoma cruzi | AID 1885 | inhibition, % (test concentration not listed) | T. cruzi beta-gal in NIH3T3, luminescence, 90 h | hit rate 1.4% among 300,000;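 active = mean inhibition across valid replicates above about 55%, limit read from the data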;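 note: signal also drops with host cell toxicity which is not excluded here; 0% = plate median of DMSO wells and 100% = zero luminescence signal; higher percent means less beta-gal luminescence so fewer parasites; stock transfer was 50 nL into about 50 µL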
Ecoli rRNA inh OD600 = recorded beside Ecoli rRNA inh, whose call it bears; OD600 change, %; measured here: OD600 growth;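 optical density of the mix in the first replicate; 0 = DMSO median and -100 = no signal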
Ecoli rRNA inh RFP = also measured in Ecoli rRNA inh; calls as there; RFP signal change, %; measured here: RFP humanized mutant strains;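 first replicate; 0 = DMSO median and -100 = no signal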
The depositor's hits bear a star. Only part of the results is shown (hit frequency here may not be typical).

CN1C[C@@H]2C(c3ccc(C(F)(F)F)cc3)C3(c4ccccc4)CC2(C3)[C@H]1c1ccccc1 (stereo not given in full) was read as FGF22 binding inactive, Beta apoptosis -4.0, Ecoli rRNA inh -32.1, AF4-AF9 inh -5.9, Bfl-1 A1 inh -0.4, UCH37 inh 1.5, T cruzi inh 32.6, Ecoli rRNA inh OD600 -5.1 and Ecoli rRNA inh RFP 30.2.
For Cc1ccc(S(=O)(=O)N2CCCC(C(=O)NCCC3=CCCCC3)C2)cc1 (stereo not given) the results were Ecoli growth 0.759, Beta apoptosis 7.3, Bfl-1 A1 inh 1.1, UCH37 inh 1.2 and T cruzi inh 6.6.
CC(=O)c1cccc(N(C(=O)c2ccccn2)C(C(=O)NC2CCCCC2)c2cccs2)c1 (stereo not given) was read as Ecoli growth 0.687, FGF22 binding inactive, Ecoli rRNA inh 8.1, AF4-AF9 inh -2.5, Bfl-1 A1 inh 0.9, UCH37 inh 2.4, T cruzi inh 4.3, Ecoli rRNA inh OD600 5.4 and Ecoli rRNA inh RFP -1.1.
CC(=O)OC1(C(C)=O)CCC2C3CC(C(F)(F)F)C4=CC(=O)CCC4(C)C3CCC21C (stereo not given) was read as Ecoli growth 0.647, FGF22 binding inactive, Ecoli rRNA inh -12.6, AF4-AF9 inh 5.7, UCH37 inh 3.0, Ecoli rRNA inh OD600 -49.0 and Ecoli rRNA inh RFP 2.3.
Screening COc1ccc(CCNC(=O)NC23CC4CC(CC(C4)C2)C3)cc1OC returned Ecoli growth 0.763, Beta apoptosis -6.2, Bfl-1 A1 inh -0.7, UCH37 inh 1.8 and T cruzi inh 1.4.
Screening CC(C)(C)OC(=O)NCc1ccc(CNC(=O)c2[nH]cnc2C(=O)N[C@@H](Cc2ccccc2)C(=O)OC(C)(C)C)cc1 returned FGF22 binding active, Beta apoptosis 2.0, Ecoli rRNA inh 14.8, AF4-AF9 inh 1.7, Bfl-1 A1 inh -0.5, UCH37 inh 0.8, T cruzi inh 18.5, Ecoli rRNA inh OD600 10.2 and Ecoli rRNA inh RFP 0.7.
For Nc1nc2nccc(-c3ccco3)n2n1 the results were Ecoli growth 0.681, FGF22 binding inactive, Beta apoptosis -6.9, Ecoli rRNA inh 10.8, AF4-AF9 inh 2.5, Bfl-1 A1 inh 0.3, UCH37 inh inactive, T cruzi inh -15.0, Ecoli rRNA inh OD600 8.8 and Ecoli rRNA inh RFP 1.5.
`CC(C)C1N=C(c2ccc3c(c2)OCO3)CC(c2ccccc2O)N1` (stereo not given) gave Ecoli growth 0.619, Beta apoptosis 1.5, Bfl-1 A1 inh -4.1, UCH37 inh 1.1 and T cruzi inh -14.8.
For Cc1nc(SCC(=O)Nc2nccs2)c(C#N)c(C)c1C the results were Ecoli growth 0.698, FGF22 binding inactive, Beta apoptosis 2.2, Ecoli rRNA inh 13.7, AF4-AF9 inh -0.8, Bfl-1 A1 inh -0.7, UCH37 inh -33.7, Ecoli rRNA inh OD600 15.0 and Ecoli rRNA inh RFP -1.5.
Screening COc1ccc(N2C(=O)[C@@H]3Cc4ccccc4CN3C2=O)cc1 returned Ecoli growth 0.726, Beta apoptosis -3.1, AF4-AF9 inh -0.8, Bfl-1 A1 inh -0.7, UCH37 inh -0.4 and T cruzi inh 5.5.
C[C@@H]1CC[C@H](O)/C=C/C(=O)O[C@H](C)CC[C@H](O)/C=C/C(=O)O1 was read as FGF22 binding inactive, Ecoli rRNA inh -1.1, AF4-AF9 inh -6.1, Bfl-1 A1 inh 0.4, T cruzi inh -4.8, Ecoli rRNA inh OD600 -19.1 and Ecoli rRNA inh RFP 0.4.
For CCN(CC)C(=O)c1cccc(NC(=O)c2cc(-c3ccccn3)nc3ccccc23)c1 the results were Ecoli growth 0.7, FGF22 binding inactive, Beta apoptosis 4.2, Ecoli rRNA inh 1.3, AF4-AF9 inh -3.3, Bfl-1 A1 inh 0.2, UCH37 inh 4.3, Ecoli rRNA inh OD600 -7.8 and Ecoli rRNA inh RFP -1.5.
For CN(Cc1cnn(-c2ccc(F)cc2)c1)Cc1nc(Cc2ccccc2)no1 the results were Ecoli growth 0.725, FGF22 binding inactive, Beta apoptosis -0.6, Ecoli rRNA inh -4.8, AF4-AF9 inh -2.1, Bfl-1 A1 inh 0.7, UCH37 inh 4.6, T cruzi inh 8.9, Ecoli rRNA inh OD600 -4.1 and Ecoli rRNA inh RFP -3.4.
Screening CCc1noc(C)c1C(=O)Nc1nc2ccc(F)cc2s1 returned Ecoli growth 0.655, FGF22 binding inactive, Beta apoptosis 12.1, Ecoli rRNA inh -13.9, AF4-AF9 inh -0.3, Bfl-1 A1 inh 0.4, UCH37 inh 2.1, T cruzi inh -5.3, Ecoli rRNA inh OD600 -13.4 and Ecoli rRNA inh RFP -0.5.
CC(C)Oc1cccc(C(=O)NC(=S)Nc2cccnc2)c1 was read as Ecoli growth 0.706, Beta apoptosis -9.9, Bfl-1 A1 inh 0.2, UCH37 inh -0.5 and T cruzi inh -11.8.
For CCC1(C)Cc2ccccc2-c2nc3n(c(=O)c21)CCS3 (stereo not given) the results were Ecoli growth 0.682, FGF22 binding inactive, Beta apoptosis -7.2, AF4-AF9 inh 0.5, Bfl-1 A1 inh -0.4, UCH37 inh -9.7 and T cruzi inh -6.7.
`COc1ccccc1-c1cc(C(F)(F)F)nc(N2CCN(c3ccc(F)cc3)CC2)n1` gave Ecoli growth 0.715, Beta apoptosis 8.0, Bfl-1 A1 inh -0.7, UCH37 inh 1.7 and T cruzi inh 26.4.
Cc1cccc(C)c1NC(=O)CNC(=O)C1COc2ccccc2O1 (stereo not given) was read as Ecoli growth 0.651, FGF22 binding inactive, Beta apoptosis -3.1, Ecoli rRNA inh 10.8, AF4-AF9 inh 0.3, Bfl-1 A1 inh -1.6, UCH37 inh 6.0, Ecoli rRNA inh OD600 7.8 and Ecoli rRNA inh RFP -1.1.
Screening COc1cc2c(cc1NC(=S)Nc1cccc(C(F)(F)F)c1)oc1ccccc12 returned Ecoli growth 0.665, Beta apoptosis 10.0, Bfl-1 A1 inh -0.3, UCH37 inh 5.5 and T cruzi inh 10.8.
COCCN(Cc1cc2ccc(C)cc2[nH]c1=O)S(=O)(=O)c1ccccc1 was read as Ecoli growth 0.655, FGF22 binding inactive, Beta apoptosis -2.9, Ecoli rRNA inh -6.7, AF4-AF9 inh 2.1, Bfl-1 A1 inh -0.3, UCH37 inh -2.3, T cruzi inh 8.9, Ecoli rRNA inh OD600 -7.0 and Ecoli rRNA inh RFP -0.6.

Reprinted from the part before: 2 compounds, then new ones.
Screening COc1cc2c(cc1NC(=S)Nc1cccc(C(F)(F)F)c1)oc1ccccc12 returned Ecoli growth 0.665, Beta apoptosis 10.0, Bfl-1 A1 inh -0.3, UCH37 inh 5.5 and T cruzi inh 10.8.
COCCN(Cc1cc2ccc(C)cc2[nH]c1=O)S(=O)(=O)c1ccccc1 was read as Ecoli growth 0.655, FGF22 binding inactive, Beta apoptosis -2.9, Ecoli rRNA inh -6.7, AF4-AF9 inh 2.1, Bfl-1 A1 inh -0.3, UCH37 inh -2.3, T cruzi inh 8.9, Ecoli rRNA inh OD600 -7.0 and Ecoli rRNA inh RFP -0.6.
`O=C(NCc1ccco1)C1CCCN1C(=O)Nc1ccc(Br)cc1` (stereo not given) gave Ecoli growth 0.671, FGF22 binding inactive, Ecoli rRNA inh 0.8, AF4-AF9 inh 0.8, UCH37 inh 4.8, T cruzi inh -1.5, Ecoli rRNA inh OD600 3.6 and Ecoli rRNA inh RFP -4.2.
CCOc1ccc(C(=O)Nn2cnnc2)cc1 was read as Ecoli growth 0.69, Beta apoptosis -0.9, Bfl-1 A1 inh 0.4, UCH37 inh 3.8 and T cruzi inh -7.2.
CC(C)(C)c1ccc(/C=N/Nc2nncn2N)cc1 was read as FGF22 binding inactive, Beta apoptosis -10.2, Ecoli rRNA inh 5.9, AF4-AF9 inh -0.1, Bfl-1 A1 inh 0.4, T cruzi inh -20.1, Ecoli rRNA inh OD600 8.6 and Ecoli rRNA inh RFP -2.4.
Screening Cc1cccc(C(=O)NNS(=O)(=O)c2ccc(F)cc2)c1O returned Ecoli growth 0.602, FGF22 binding inactive, Beta apoptosis -1.0, Ecoli rRNA inh 11.3, AF4-AF9 inh 2.0, Bfl-1 A1 inh -0.5, UCH37 inh 1.2, T cruzi inh 11.0, Ecoli rRNA inh OD600 11.4 and Ecoli rRNA inh RFP -8.2.
For O=C(CC1SC(N2CCCCC2)=NC1=O)Nc1cccc(C(=O)N2CCCC(C(F)(F)F)C2)c1 (stereo not given) the results were Ecoli growth 0.69, FGF22 binding inactive, Ecoli rRNA inh 2.5, AF4-AF9 inh -19.9, UCH37 inh 4.1, Ecoli rRNA inh OD600 10.8 and Ecoli rRNA inh RFP -0.3.
For O=C(NC(N1CCCCCC1)C(Cl)(Cl)Cl)c1ccccc1Cl (stereo not given) the results were Ecoli growth 0.692, FGF22 binding inactive, Beta apoptosis -1.6, Ecoli rRNA inh -4.8, AF4-AF9 inh 3.1, Bfl-1 A1 inh -0.3, UCH37 inh -7.6, T cruzi inh -19.4, Ecoli rRNA inh OD600 1.9 and Ecoli rRNA inh RFP 0.7.
CCc1ccc(OCC(=O)Nc2cc(S(=O)(=O)CC)ccc2O)cc1 was read as Ecoli growth 0.641, FGF22 binding inactive, Beta apoptosis -0.4, Ecoli rRNA inh -36.3, AF4-AF9 inh 3.0, Bfl-1 A1 inh -0.4, UCH37 inh -1.4, T cruzi inh -3.8, Ecoli rRNA inh OD600 -44.8 and Ecoli rRNA inh RFP -17.4.
`O=C1c2ccccc2C(=O)N1CCCON1C(=O)c2ccccc2C1=O` gave Ecoli growth 0.712, Beta apoptosis -0.2, Bfl-1 A1 inh -0.9, UCH37 inh 4.3 and T cruzi inh -15.3.
For N#CC1=C(N)OC2=C(C(=O)CCC2)C1c1ccc(OC(=O)N2CCOCC2)cc1 (stereo not given) the results were Ecoli growth 0.7, Beta apoptosis 1.4, Bfl-1 A1 inh -0.5, UCH37 inh 3.5 and T cruzi inh 6.7.
For Oc1ccc(-c2nccc(-c3ccc(Cl)cc3Cl)n2)cc1 the results were FGF22 binding inactive, Beta apoptosis -0.6, Ecoli rRNA inh -21.8, AF4-AF9 inh 1.5, Bfl-1 A1 inh 0.3, T cruzi inh 79.0*, Ecoli rRNA inh OD600 -19.7 and Ecoli rRNA inh RFP -5.3.
Screening Cc1ccc(NC(=O)Nn2cnnc2)cc1 returned Ecoli growth 0.684, FGF22 binding inactive, Beta apoptosis -10.5, Ecoli rRNA inh 4.1, AF4-AF9 inh -0.2, Bfl-1 A1 inh 0.5, UCH37 inh 1.0, T cruzi inh -25.6, Ecoli rRNA inh OD600 -2.8 and Ecoli rRNA inh RFP -2.4.
For COc1ccc(C2N=C(N)N=C(N)N2c2ccccc2)cc1OC (stereo not given) the results were Ecoli growth 0.68, Beta apoptosis -9.0, Bfl-1 A1 inh 0.1, UCH37 inh 4.0 and T cruzi inh 7.1.
`CCOC(=O)c1ccc(NC(=S)NC(=O)COc2ccccc2)cc1` gave Ecoli growth 0.664, FGF22 binding inactive, AF4-AF9 inh -2.4, Bfl-1 A1 inh -1.6, UCH37 inh 6.3 and T cruzi inh 0.4.

From PubChem
